Vaccinia mCherry – vaccinia inhibition (mCherry reporter). Potency, µM (doses to about 36.5 µM), inactives show at the top dose activity change, negative = inhibition, actives largely listed as inhibitors. Vaccinia virus mCherry reporter infection, fluorescence; about a quarter of the inactives have no number. actives 0.63% (n = 310,000). AID 720579; active = well fitted inhibition curve with a large enough effect; inconclusive = small, poorly fitted or top-dose-only effect; inactive = no such curve, though single readings can be large or run the other way; tested in A549 cells; note: nearly all actives have a fitted effect of over 35% in size; inactives centre near -10
VACV Venus inh – inhibitors of vaccinia virus (Venus reporter); Vaccinia virus Venus reporter expression, fluorescence; Potency, µM (highest dose often 36.5 µM), for the others: at the top dose activity change, negative = inhibition, hits mostly inhibitors; actives 0.46% (n = 330,000); active means well fitted inhibition curve with a large enough effect; inconclusive means small, poorly fitted or top-dose-only effect; inactive means no such curve, though single readings can be large or run the other way; tested in A549 cells; note: nearly all actives have a fitted effect of over 30% in size; inactives centre near -10
The depositor's hits bear a star; i = inactive; ? = inconclusive; · = not tested or not shown; & = joins results of further samples; [ ] = remark or other dose. % is set by controls: 0 for no effect and ±100 for the full control effect; potency is the fitted concentration of half-maximal effect.

| mol | VACV Venus inh | Vaccinia mCherry |
| --- | --- | --- |
| Cc1c(C(=O)N/N=C/c2cccnc2)sc(=S)n1C | -13% | -10% |
| CCOC(=O)c1oc2ccc(S(=O)(=O)n3nc(-c4ccc(OC)cc4)cc3N)cc2c1C | ? | ? |
| O=C(/C=C/Nc1ccc(OC(F)(F)F)cc1)C(F)(F)F | -23% | · |
| CCOc1ccc(C(C(=O)NC2CCCC2)N(C(=O)c2snc(C(N)=O)c2N)c2cccc(O)c2)cc1 (configuration not stated) | 10% | -12% |
| CC(C)=CC(=O)OCC(=O)Nc1cc([N+](=O)[O-])ccc1F | -6% | -13% |
| O=C(COC(=O)c1cc(NS(=O)(=O)c2cccs2)ccc1O)Nc1ccc(F)c(F)c1F | -4% | -13% |
| Clc1ccc(CSc2nnc(-c3ccc4c(c3)OCO4)o2)cc1 | -29% | · |
| Cc1c2cnn(CC(=O)NCCCN3CCCCC3)c(=O)c2c(C)n1Cc1ccccc1 | -1% | ? |
| CC(=O)Nc1ccc(C)c([N+](=O)[O-])c1 | -3% | i |
| CCOC(=O)c1ccc(NC(=O)c2ccccc2)cc1 | -7% | i |
| Cc1cc(C)cc(NC(=O)c2cc(S(=O)(=O)N3CCC(C)CC3)cn2C)c1 | -12% | -2% |
| O=C(Oc1ccccc1Cl)c1cc(-c2ccc3c(c2)OCCO3)on1 | 0% | i |
| Cc1ccn2c(-c3n[nH]c(=S)n3C)c(C)nc2c1 | -12% | -10% |
| CCc1c(O)cc(=O)n(-c2ccccc2)c1-c1ccccc1 | 2% | -1% |
| COc1ccc(-c2c(-c3ccsc3)oc3ccc(N4CCOCC4)cc23)cc1 | -3% | -14% |
| Cc1nn(-c2ccccc2)c2sc(C(=O)n3cccn3)cc12 | -9% | i |
| COc1ccc(-c2nnc(SCC(=O)N3CCOCC3)o2)cc1 | -8% | · |
| Cc1nnc(SCC(=O)Nc2nc3ccccc3s2)n(N)c1=O | -4% | -3% |
| CN(CC(=O)O)S(=O)(=O)c1cc(Cl)ccc1Cl | -3% | -6% |
| CC(Oc1ccc(Br)cc1)C(=O)Nc1nc(-c2ccccn2)cs1 (configuration not stated) | ? | 13µM* |
| CCc1nc2c(OCc3ccc(C#N)cc3)cccn2c1N(C)C(=O)C(C)C | -2% | 0% |
| COC(=O)c1cc(CNC(=O)c2ccccc2Cl)ccc1OC | -22% | -18% |
| COC(=O)c1c(NC(=O)CN2CCCc3ccccc32)sc(C)c1C | 19% | -14% |
| CC1CCN(S(=O)(=O)c2cc([N+](=O)[O-])ccc2Cl)CC1 | -4% | -10% |
| COc1cc(NC(=O)C(=O)N2CCN(C)CC2)c(OC)cc1Cl | -10% | 0% |
| CN(c1nnc(NC(=O)Nc2ccc(Br)cc2)s1)C1CCCCC1 | -11% | -12% |
| COc1ccccc1CNC(=O)C(=O)NCC1OCCN1C(=O)c1ccc(Cl)cc1 (configuration not stated) | -9% | i |
| CC(=O)c1ccccc1-c1ccc2c(c1)CC(CNC(=O)c1ccnc(Cl)c1)O2 (configuration not stated) | ? | -15% |
| CCN(CC)CCCn1c2c(c(SCC(=O)N3CCCc4ccccc43)nc1=O)CCC2 | -17% | i |
| COc1cc(NC(=O)COC(=O)c2ccc3ccccc3n2)cc(OC)c1 | -4% | -8% |
| COc1ccccc1NNC(=O)c1cc(C(C)(C)C)nn1Cc1ccccc1 | -11% | -23% |
| O=C(CCc1nnc(CCC2CCCCC2)o1)NCc1ccon1 | -20% | i |
| O=[N+]([O-])c1cc([N+](=O)[O-])c(Oc2cc(Cl)ccc2Cl)cc1NC1CCCCCCC1 | -10% | ? |
| O=c1ccc2cc(S(=O)(=O)Nc3ccc(F)c(Cl)c3)ccc2[nH]1 | 4% | 3% |
| CCOC(=O)C1=CN(Cc2ccco2)S(=O)(=O)N(CC)C1c1ccc(F)c(Cl)c1 (configuration not stated) | ? | -12% |
| O=C(NCc1ccccc1C(F)(F)F)C1CCC(=O)N(C2CCCCCC2)C1 (configuration not stated) | -10% | -14% |
| CN(Cc1ccccc1)C(=O)c1csc([C@@H]2O[C@H](CO)[C@@H](O)[C@H]2O)n1 | 0% | i |
| CN(C(=O)C1CCN(c2ncnc3c2nc2n3CCCCC2)CC1)c1ccccc1F | -9% | 0% |
| CC(=O)N1CCN(C(=O)Cn2c(=O)oc3ccccc32)CC1 | -5% | · |
| CC(=O)Nc1ccc(S(=O)(=O)N2CCC(C(=O)O)(c3ccccc3)CC2)cc1 | -11% | i |
| Cc1cc(C)c2nc(NC(=O)c3ccc(S(=O)(=O)N4CCc5ccccc54)cc3)sc2c1 | -11% | -12% |
| CCOC(=O)c1ccc(-c2ccc(/C=C(\C#N)C(=O)Nc3ccc(C)cc3OC)o2)cc1 | -2% | -7% |
| COC(C(=O)Nc1ccccc1F)c1ccccc1 (configuration not stated) | -3% | -16% |
| C/C(=C\C(=O)c1ccccc1)NCc1ccc(F)cc1 | -60% | · |
| COC(=O)CC1c2cc(OC)c(OC)cc2CCN1C(=O)Nc1ccc(C)cc1Cl (configuration not stated) | -1% | -10% |
| O=S(=O)(c1ccc(F)cc1)N1CCN(C(=S)NCC2CCCO2)CC1 (configuration not stated) | -14% | -2% |
| CC(C)C(=O)NNC(=O)CSc1nc(C2CCCCC2)nc2ccccc12 | -7% | i |
| CCc1ccc(C(=O)NNC(=O)CCc2nc3ccccc3c(=O)[nH]2)cc1 | 2% | -12% |
| O=C(COC(=O)C1CCC1)Nc1ccc(Cl)cn1 | 10% | -12% |
| O=C(O)/C(=C1/OC(=O)c2ccccc21)c1ccccc1 | -15% | 0%[1.46 µM] |

(next part)
| mol | VACV Venus inh | Vaccinia mCherry |
| --- | --- | --- |
| COCCNC(=O)/C(C#N)=C/c1ccc(C(=O)O)cc1 | -5% | -25% |
| CCOc1ccc(S(=O)(=O)NCc2ccco2)cc1 | -15% | i |
| COc1ccc(C(=O)Nc2sc(C)c(C)c2CN2CC(C)OC(C)C2)cc1 (configuration not stated) | 1% | -12% |
| C/C(N)=C(\C#N)C(=O)NCc1ccccn1 | 7% | ? |
| CN(C)S(=O)(=O)N1CCC(Oc2ccc(C(=O)N3C[C@H]4CC[C@H]3C4)cc2)CC1 | -26% | -10% |
| COCCSc1nnc(-c2cccc(C#N)c2)n1C | -22% | -15% |
| COC(=O)c1cccc(Nc2c(-c3cc(Br)ccc3O)nc3nc[nH]n23)c1 | -10% | -16% |
| COc1ccc(OC)c(/C=C/c2ccnc3ccccc23)c1 | -21%&-26% | -8%&-13% |
| CC(C)C(c1nnnn1Cc1ccc(F)cc1)N1CCN(C(=O)c2ccco2)CC1 (configuration not stated) | -12% | · |
| C=CCN1CCN(C(=O)c2cc3c(s2)CCC(CC)C3)CC1 (configuration not stated) | -5% | -22% |
| O=C(c1cccc(F)c1F)N1CCCC1 | -4% | -12% |
| CCCC(=O)NC1CC(=O)N(c2ccc3c(c2)OCCO3)C1 (configuration not stated) | -10% | -18% |
| CN1CCN(c2ccccc2NC(=O)c2ccc([N+](=O)[O-])cc2Cl)CC1 | -1% | -19% |
| COc1ccc2c(-c3ccccc3)cc(SCC(=O)N(C)C)nc2c1 | -21% | -8% |
| Cc1ccc(NC(=O)c2c(NC(=O)c3ccccc3Cl)sc3c2CCC3)cc1 | -8% | -21% |
| Cc1nn(CC(=O)NCc2ccc(N(C)C)cc2)c(=O)c2nn(-c3ccccc3)c(C)c12 | -7% | -15% |
| O=C(NCC1CCCO1)c1cn(Cc2ccccc2Cl)nc1-c1ccccc1 (configuration not stated) | -17% | -14% |
| CCNC(=O)C1(C)CCN(C(=O)c2cc(C)oc2C)C1 (configuration not stated) | 5% | 43%[activator] |
| C[C@H]1CCC(=O)N([C@H](CSc2ccccc2)Cc2ccccc2)CC1 | -4%&-19% | -26% |
| COc1cccc(CNC(=O)CSc2nc(=O)[nH]c3c2CCCC3)c1 | -2%[7.34 µM] | -2%[7.34 µM] |
| Cc1c(NC(=O)CSc2ncnc3c2cnn3-c2ccccc2)c(=O)n(-c2ccccc2)n1C | -25% | ? |
| COc1ccccc1N(CC(=O)NC1CCCC1)C(=O)C1(C)CC(=O)N=C2C=CC(C)=CN21 (configuration not stated) | -11% | -10% |
| O=C(N/N=C/c1cccs1)c1cccnc1 | -3% | -19% |
| COc1ccc(CC(N)c2csc(NC(=O)c3cc(C(C)(C)C)nn3Cc3ccccc3)n2)cc1 (configuration not stated) | ? | -20% |
| COc1ccccc1NC(=O)n1ncc2c(C)cccc21 | -13% | -6% |
| COc1ccc(N2CCN(c3ccc(N4C(=O)COCC4=O)cc3[N+](=O)[O-])CC2)cc1 | -19% | i |
| O=C(O)CCCCCNC(=O)Cn1nnc2ccccc2c1=O | -12% | -6% |
| C=CCc1c(C)nc(-c2ccccc2)nc1N/N=C/c1ccncc1 | -16% | -3% |
| COc1cc(S(=O)(=O)NCc2ccc3c(c2)OCO3)c(OC)cc1C | -5% | i |
| Cc1ccc(Cl)cc1NC(=O)c1nnn(Cc2ccccc2)c1N | -29% | i |
| O=S(=O)(CCN1CCSCC1)c1ccccc1 | ? | 13µM* |
| CCCOc1ccc(CSc2nc3ccccc3[nH]2)cc1 | ? | ? |
| CCOc1cc(/C=N/NC(=O)CNc2ccc(C)cc2)ccc1OC(=O)c1ccccc1 | -19% | -4% |
| COc1ccc(Nc2nc(Cl)nc(Nc3ccc(OC)cc3)n2)cc1 | -7% | i |
| CC(=O)Nc1ccc(C(=O)NCCc2ccccc2)cc1 | -2% | -13% |
| C=CCNC(=O)c1cc2cc(Cl)ccc2nc1N | 2% | 7% |
| COc1ccc(NC(=O)c2ccccc2NS(=O)(=O)c2ccc(CNC(C)=O)cc2)c(OC)c1 | -19% | -23% |
| COc1ccccc1NC(=O)NC1(C(=O)N2CCOCC2)CCCCC1 | -3% | i |
| CCC(CC)C(=O)N(C)c1c(C)nc2c(OCc3ccccc3C(=O)OC)cccn12 | -15% | i |
| COc1ccc(-c2csc3nc(-c4ccccc4F)oc(=O)c23)cc1 | -14% | i |
| O=C(CC[C@H]1O[C@@H](n2ccc(=O)[nH]c2=O)[C@H](O)[C@@H]1O)N[C@H](Cc1ccccc1)C(=O)NCCCN1CCCC1=O | -9% | 10% |
| COCc1nnc(NC(=O)c2ccc(S(=O)(=O)N3CCCC3)cc2)o1 | -3% | -15% |
| O=S1(=O)c2c(Oc3cccc4ccccc34)cccc2OC(COCc2ccccc2)CN1C1CCCC1 (configuration not stated) | -8% | -7% |
| O=C1C=C(N2CCOCC2)C2(CCCCC2)O1 | -6% | -11% |
| COC(=O)c1ccc(NC(=O)CSc2nc(=O)n3cccc(C)c3n2)cc1 | -6% | -15% |
| Cc1cc(C(=O)N2CCCC2(C)C(=O)O)c(C)o1 (configuration not stated) | -5% | 13% |
| Cc1ccc(N(CC(=O)N2CCCC2)S(C)(=O)=O)cc1C | -8% | i |
| CCC1CN(CCNC(=O)c2cccc(C(=O)OC)c2)Cc2cc(OC)ccc2O1 (configuration not stated) | -3% | -14% |
| Cc1cc(C)nc(NS(=O)(=O)c2ccc(NC(=O)C3COc4ccccc4O3)cc2)n1 (configuration not stated) | -14% | i |
| O=C(NC1CCS(=O)(=O)C1)C12CC3CC(CC(C3)C1)C2 (configuration not stated) | -9% | -13% |

(listing goes on)
| mol | VACV Venus inh | Vaccinia mCherry |
| --- | --- | --- |
| O=C(CSc1nc(-c2ccc(F)cc2)cs1)Nc1ccccn1 | 2% | -20% |
| Cc1cccc(/C=N\Nc2cn[nH]c(=O)c2Cl)c1 | -12% | -18% |
| CN(C)S(=O)(=O)N1CCCC(C(=O)c2ccc(C(F)(F)F)cc2)C1 (configuration not stated) | -18% | -20% |
| OC(c1ccccc1)(C1CCCCC1)C(CN1CCOCC1)c1ccccc1 (configuration not stated) | -19% | i |
| Cc1c(Cl)cccc1NC(=O)CSc1nnc(C)n1CC1CCCO1 (configuration not stated) | -18% | -1% |
| O=C(Nc1cccnc1Cl)C1=NN(c2ccccc2)C(=O)CC1 | -23% | i |

Assay outcomes as filed in PubChem BioAssay.
